gsp agonist – agonists of gsp mutant (McCune-Albright syndrome). gsp mutant cells, cAMP HTRF, 30 min; control for the full effect not named in the record. Potency, µM (titrated, usually from 76.9 µM), inactives show at the top dose activation (cAMP increase), most hits filed as activators. actives 0.13% (n = 340,000); active = well fitted activation curve with a large enough effect; inconclusive = small, poorly fitted or top-dose-only effect, or another doubt; inactive = no such curve, though single readings can be large or run the other way; cell line not stated here;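 also: phosphodiesterase inhibitor Ro 20-1724 added with compounds to block cAMP breakdown; potency is read from the fitted curve at half-maximal effect; nearly all actives have a fitted effect of over 60% in size; about a fifth of the inactives were tested at one dose only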
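Cells stably selected in G418 were plated at 2000/well, grown 16-24 hr, then given compounds in DMSO with the PDE inhibitor […] (300 uM solution added) for 30 min at 37C; cAMP was read by HTRF.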
TRPML1 ag – human mucolipin-1 channel agonism; TRPML1-expressing cells, Ca2+ dye fluorescence, FDSS; host cell line not named in the record; reference of the full effect not given here; actives 0.12% (n = 410,000); activation, % (test concentration not listed); in the data active = activation above about 50%; inconclusive = about 30% to 50%; inactive = below about 30%; also: 0% is about no effect; the text of the record puts the active cut at 80%
Target sequence (Q9GZU1 whole entry, looked up): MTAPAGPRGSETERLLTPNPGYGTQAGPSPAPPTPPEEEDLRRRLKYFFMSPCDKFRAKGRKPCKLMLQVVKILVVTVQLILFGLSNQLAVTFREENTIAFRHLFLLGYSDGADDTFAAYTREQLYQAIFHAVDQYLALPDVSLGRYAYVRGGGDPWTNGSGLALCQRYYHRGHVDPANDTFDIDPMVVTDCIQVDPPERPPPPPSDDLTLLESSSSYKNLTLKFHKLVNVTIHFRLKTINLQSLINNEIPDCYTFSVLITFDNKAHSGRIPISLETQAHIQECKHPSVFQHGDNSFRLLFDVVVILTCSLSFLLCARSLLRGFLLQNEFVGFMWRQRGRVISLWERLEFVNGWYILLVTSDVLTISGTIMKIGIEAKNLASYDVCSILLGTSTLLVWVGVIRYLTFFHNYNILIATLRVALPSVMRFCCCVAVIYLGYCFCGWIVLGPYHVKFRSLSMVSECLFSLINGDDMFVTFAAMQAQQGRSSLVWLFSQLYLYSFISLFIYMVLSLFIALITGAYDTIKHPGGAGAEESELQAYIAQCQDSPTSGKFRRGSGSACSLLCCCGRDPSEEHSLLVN
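Kinetic FDSS Ca2+ read in Tet-induced TRPML1-DL cells (ABD Ca8 dye plus quencher, 45-90 min RT loading): baseline, then compound, then 110 s agonist window; EC80 agonist 54-4 at 4uM final added afterwards for a 110 s antagonist window.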
Menin MLL FP FL – inhibitors of human menin-MLL interaction, wild-type MLL peptide | FP activity change, % at 61.4 µM | Fluorescence polarization, fluorescein-MLL peptide displacement from menin | 290,000 tested, under 10 active; inconclusive = falling polarisation curve, or a change in total fluorescence; inactive = total fluorescence flat and polarisation flat or rising; no compound was filed as active; the % refers to the polarisation; negative = inhibition;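 also: % of control where 0% means no effect; inhibitors lower the polarisation; unlabelled MLL peptide was the positive control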
ClpP mod – qHTS Assay for Activators of ClpP; ATP-dependent Clp protease proteolytic subunit (Bacillus subtilis (strain 168)), P80244; purified B. subtilis ClpP, FRET peptide cleavage, 20 min; Potency, µM (series often up to 57.5 µM), without a hit: at the highest dose activity change, negative = active; actives 1.9% (n = 340,000); AID 651965, 2013; active = well fitted falling curve with a large enough effect; inconclusive = small, poorly fitted or top-dose-only effect; inactive = no such curve, though single readings can be large or run the other way; also: potency is read from the fitted curve at half-maximal effect; the source files actives as falling curves though it sought activators and does not explain the sign; nearly all actives have a fitted effect of over 65% in size; many hits overshoot -100%
Target sequence (P80244 whole entry, looked up): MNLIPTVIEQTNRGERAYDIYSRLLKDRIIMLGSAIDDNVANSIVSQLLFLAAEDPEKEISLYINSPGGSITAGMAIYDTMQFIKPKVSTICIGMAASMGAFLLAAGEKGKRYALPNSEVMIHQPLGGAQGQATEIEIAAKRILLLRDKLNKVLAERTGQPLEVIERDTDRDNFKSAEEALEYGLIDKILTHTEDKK
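Buffer: 100 mM Tris/HCl pH8, 100 mM KCl, 0.05% low protease BSA, 2.5% glycerol, 0.01% Tween-20. ClpP 10 microg/mL final; 20 min RT; delta FRET normalized to ADEP and DMSO controls.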
TRPML1 inh – inhibitors of human TRPML1 channel. Q9GZU1. TRPML1-inducible cells, Ca2+ dye fluorescence, FDSS; hits give low values; inhibition of EC80 agonist-evoked calcium signal. activity change, negative = inhibition, % (test concentration not listed). actives 0.02% (n = 390,000). AID 624415; in the data active means activity change below about -50%; inconclusive means about -30% to -50%; inactive means above about -30%;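 also: stimulus is agonist 54-4 at its EC80 concentration; % is scaled to controls: 0 for no effect and ±100 for the full control effect; compound concentration not given in the record; the text of the record puts the active cut at -80%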
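TRPML1-DL cells, Tet-induced overnight (~16 h, 37 °C) at 1,500 cells/well, were loaded with Ca8 no-wash dye plus quencher for 45-90 min at room temperature. Compounds were pinned during FDSS kinetic reading; agonist 54-4 at EC80 (4 uM final) then added.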
gsp antag – antagonizes gsp, the McCune-Albright syndrome mutation. actives 0.4% (n = 340,000). AID 624288. gsp-mutant cells, cAMP HTRF, 30 min; control for the full effect not named in the record. Potency, µM (titrated, usually from 76.9 µM), inactives show at the highest dose activity change, negative = inhibition, hits mostly inhibitors; active = falling curve of any shape with a large fitted effect; inconclusive = falling curve, mostly with a smaller effect; inactive = flat or rising curve; cell line not stated here;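 also: intracellular cAMP measured with PDE inhibitor Ro 20-1724 present during compound exposure; potency is read from the fitted curve at half-maximal effect; % is scaled to controls: 0 for no effect and ±100 for the full control effect; nearly all actives have a fitted effect of over 65% in size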
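HTRF cAMP measurement after 30 min RT detection following 30 min, 37C compound treatment alongside […] (added as 300 uM solution) in G418-selected cells seeded at 2000/well and grown 16–24 h.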
* hit, by the source's call; ? = inconclusive; . = no result given; & = joins results of further samples; [ ] = dose if it differs, or a comment.

1	Cc1ccc(CSCCNC(=O)c2ccc(C)cc2)cc1
2	O=C(NNC(=O)c1ccccc1C(=O)O)c1cc2ccccc2o1
3	O=C(/C(=C/O)N=Nc1ccccc1)c1ccncc1
4	CC(C)(C)NC(=O)COC(=O)c1ccccc1Nc1ccc(SC(F)F)cc1
5	CNC(=O)c1csc(-c2ccc(C)cc2)n1
6	CN1CC=C2C(C#N)=C(N)C(C#N)(C#N)C(c3cccc(Cl)c3Cl)C2C1 (centres undefined)
7	CCC(C)Sc1c(C(C)C)cnc2c1c(=O)n(C)c(=O)n2C (centres undefined)
8	Cc1ccc(C(c2nnnn2C2CCCC2)N2CCN(c3nc4ccccc4s3)CC2)cc1 (centres undefined)

entry no.	1	2	3	4	5	6	7	8
gsp agonist	0%	14%	-13%	-30%[inhibitor]	18%	-5%	.	-61%[inhibitor]
TRPML1 ag	3.5	0.3	0.4	1.1	-0.8	1.2	2.2	-0.6
Menin MLL FP FL	1.5	-9.4	0.6	0.5	0.2	?	.	.
ClpP mod	.	-0.5%	1.5%	-26%	-1.6%	?	-19%	0.0%
TRPML1 inh	?	-5	15	-1	5	-4	-18	3
gsp antag	-14%	2%	2%	-21%	2%	-10%	.	-11%

9	Cc1ccc(OCC(=O)NNC(=O)Cn2nnc(-c3ccccc3)n2)cc1
10	Cn1c(SCc2cccc(Br)c2)nc2ccccc2c1=O
11	Cc1ccc(-c2nn(-c3ccc(F)cc3F)c3c2cnc2c(F)cccc23)cc1
12	O=C(CCC(=O)Nc1ccccc1Cl)NN=C1CCCC1
13	O=C1C2C3C=CC(CC3)C2C(=O)N1c1ccc([N+](=O)[O-])cc1 (centres undefined)
14	O=C(Nc1nnc(SCc2ccccc2)s1)c1cccs1
15	COC(=O)CSC1=C(C#N)C(c2ccccc2OC)C(C(=O)OC)C(=O)N1 (centres undefined)
16	Cc1cc(NC(=O)c2ccco2)ncc1NC(=O)CCc1ccccc1

entry no.	9	10	11	12	13	14	15	16
gsp agonist	-3%[15.4 µM]	-3%	.	24%	-10%[15.4 µM]	?	-10%	-41%[inhibitor]
TRPML1 ag	-0.5	0.9	2.7	0.1	-0.2	0.1	-0.1	1.3
Menin MLL FP FL	-7.1	-2.3	.	.	3.9	-1.2	3.6	-2.4
ClpP mod	.	0.1%	-8.7%	1.3%	0.2%	-23%	-1.0%	-3.4%
TRPML1 inh	4	1	15	10	13	13	9	10
gsp antag	6%	?	.	-7%	-8%	-10%	-6%	-1%

17	Cc1ccc(NC(=O)Cn2c(=O)n(-c3ccccc3)c(=O)c3ccc(C(=O)NCc4ccc5c(c4)OCO5)cc32)c(C)c1
18	C=CCOc1ccc(C(c2c(C)n(C)n(-c3ccccc3)c2=O)c2c(C)n(C)n(-c3ccccc3)c2=O)cc1
19	COC(=O)c1cccc(NC(=O)CSc2nc(=O)cc(N)n2-c2ccccc2)c1
20	O=C(CSc1nc2cc(Cl)ccc2s1)N1CCN(C(=O)c2ccco2)CC1
21	CC(C)N1CCN(S(=O)(=O)c2ccc3ccccc3c2)CC1
22	CCOc1ccc(NC(=O)c2ccc(N3CC4CC(C3)c3cccc(=O)n3C4)c(NC(=O)CCN3CCOCC3)c2)cc1 (centres undefined)
23	O=P1(O)CC2=C(CC=CC2)C1
24	COc1cc2cnc(-c3ccccc3)cc2cc1OC

entry no.	17	18	19	20	21	22	23	24
gsp agonist	.	-3%[15.4 µM]	?	-36%[inhibitor]	-11%	-5%	-1%	2%
TRPML1 ag	1.0	-0.9	-1.2	-0.2	-0.4	-0.5	-0.5	0.0
Menin MLL FP FL	.	-1.8	3.5	3.3	-1.1	5.1	.	.
ClpP mod	-22%	.	-2.4%	0.7%	3.0%	-0.6%	2.8%	4.2%
TRPML1 inh	-15	-13	-10	1	4	6	14	18
gsp antag	.	-6%	-2%	2%	-9%	-5%	.	4%

By substructure, the entries above with two or more sulfur atoms.
14	O=C(Nc1nnc(SCc2ccccc2)s1)c1cccs1
20	O=C(CSc1nc2cc(Cl)ccc2s1)N1CCN(C(=O)c2ccco2)CC1

entry no.	14	20
gsp agonist	?	-36%[inhibitor]
TRPML1 ag	0.1	-0.2
Menin MLL FP FL	-1.2	3.3
ClpP mod	-23%	0.7%
TRPML1 inh	13	1
gsp antag	-10%	2%

Next section
25	CC(C)c1ccccc1OCCNC(=S)NC(=O)c1cccnc1
26	Cc1ccc(C(=O)N2CCc3ccccc32)cc1NC(=O)c1ccco1
27	COc1ccc(CC2(CO)CCN(Cc3ccc4nsnc4c3)CC2)cc1
28	C=CCn1c(SCC(=O)NCC2CCCO2)nc2scc(-c3ccccc3)c2c1=O (centres undefined)
29	CCOc1ccc(N=C2C(=O)Nc3ccc(C)c(Br)c32)cc1
30	Cc1cc(Cl)ccc1OCC(=O)Nc1ccccc1NS(=O)(=O)c1cccs1
31	O=C(NCC1CCCO1)c1c(O)c2c([nH]c1=O)CCCC2 (centres undefined)
32	CCC/C=C1/CCCOC(C(=O)NCc2ccccn2)(C(F)(F)F)C1 (centres undefined)

entry no.	25	26	27	28	29	30	31	32
gsp agonist	-6%[15.4 µM]	-2%[15.4 µM]	10%	?	-6%	?	?	.
TRPML1 ag	1.0	-1.3	-0.7	1.1	-0.2	-0.4	0.0	1.5&0.7
Menin MLL FP FL	3.3	-2.3	5.5	1.6	-3.8	0.2	0.4	-3.1
ClpP mod	.	1.3%	.	-0.4%	.	4.1%	-14%	-0.5%
TRPML1 inh	2	-7	7	0	0	3	1	-4&-23
gsp antag	8%	-8%	9%	-14%	?	-15%	3%	4%

33	COC(=O)c1c(C)oc(C)c1S(=O)(=O)Nc1ccc(C(C)C)cc1
34	COc1cccc(-c2cc(C(=O)Nc3ccccc3SC)no2)c1
35	Cc1ccccc1OCCCn1c(CCNC(=O)C2CCCCC2)nc2ccccc21
36	COc1cc2c(OC(C)=O)c3c(c(-c4ccc5c(c4)OCO5)c2cc1OC)C(=O)OC3
37	CO/N=C(\CS(=O)(=O)Cc1ccc(OC)cc1)c1ccc(Cl)cc1
38	CC(C)CNC(=S)NNC(=O)c1nn(C)cc1Cl
39	CN1CCN(NC(=O)CSc2ccc(Cl)cc2Cl)CC1
40	Cc1cc(-c2ccc(C(C)C)c(S(=O)(=O)N3CCN(c4ccccn4)CC3)c2)on1

entry no.	33	34	35	36	37	38	39	40
gsp agonist	1%[15.4 µM]	8%	.	0%	1%	?	-57%[inhibitor]	5%
TRPML1 ag	1.6	3.0	2.6	-1.0&1.3	0.3	-0.8	-0.2	1.2
Menin MLL FP FL	4.1	3.7	.	1.5	0.7	1.4	2.1	-6.7
ClpP mod	.	245%	1.9%	?	2.9%	-0.4%	-0.4%	-0.9%
TRPML1 inh	-17	-1	35	11	6	11	7	53
gsp antag	-7%	-5%	.	-17%	12%	4%	8%	-8%

41	COc1ccccc1N1CCN(C(=O)c2cc(C3CC3)on2)CC1
42	CSc1ccccc1C(=O)Nc1ccccc1C(=O)N1CCCC1
43	CC(C)(C)C(=O)OCc1nc(-c2ccc(Cl)cc2)cs1
44	CC1(C)COC(c2cc3c(cc2Br)OCO3)OC1
45	Cc1ccc(NC(=O)CN(C)C(=O)CNC(=O)c2cccs2)cc1
46	CC1(C(=O)NCc2cccc3ccccc23)CCN1C(=O)Cc1ccc(-c2ccccc2)cc1 (centres undefined)
47	CSc1ccc(/C=N/n2c(COc3ccccc3)n[nH]c2=S)cc1
48	NS(=O)(=O)c1ccc2nc(NC(=O)CS(=O)(=O)c3ccc(F)cc3)sc2c1

entry no.	41	42	43	44	45	46	47	48
gsp agonist	-37%[inhibitor]	6%	9%[15.4 µM]	5%	-39%[inhibitor]	.	16%	14%
TRPML1 ag	-1.0	0.5	2.0	2.0	0.1	0.1	-0.6	0.3
Menin MLL FP FL	2.2	-3.7	1.8	.	.	.	0.8	12
ClpP mod	0.0%	0.7%	-1.0%	.	-4.2%	-17%	12%	-8.7%
TRPML1 inh	-5	6	61	-12	-26	1	-1	-15
gsp antag	2%	3%	-11%	1%	5%	.	?	-8%

49	O=C(NC1CCCCC1)c1ccc2c(c1)N(Cc1cccc(Cl)c1)C(=O)c1ccccc1S2(=O)=O
50	Cc1cc(CN(C)C(=O)C2CCC(=O)N(CCc3ccccc3)C2)n[nH]1 (centres undefined)
51	Cc1ccc(S(=O)(=O)N2CC=C(C(=O)NCc3ccccc3)CC2)cc1
52	O=C(O)c1ccc(S(=O)(=O)c2ccc3c(c2)C(=O)N(Cc2ccco2)C3=O)cc1
53	CCN1CN(Cc2ccco2)CNC1=S
54	Cc1cccc(Oc2ccccc2NC(=O)c2cnccn2)c1
55	CCOC(=O)N1CCC(NC(=O)c2cc(S(=O)(=O)N3CCC4(CC3)OCCO4)ccc2F)CC1
56	Cc1ccc(NC(=O)c2cc(C)nn2-c2ccccc2)cc1
57	COc1ccccc1NC(=O)/C(C#N)=C/c1ccncc1
58	Cc1ccc(C)c(OCC(=O)NNC(=O)c2ccc(NC(=O)C3CC3)cc2)c1

entry no.	49	50	51	52	53	54	55	56	57	58
gsp agonist	.	25%	-23%	-3%	-2%[15.4 µM]	1%	0%	-33%[inhibitor]	5%	27%
TRPML1 ag	0.4	-0.4	-0.4	0.7	-0.1	1.8	0.3	2.6&-1.0	-0.1	-0.5
Menin MLL FP FL	.	.	2.1	-1.4	6.4	2.5	2.0	2.0	.	.
ClpP mod	0.4%	0.7%	-0.6%	-0.6%	0.0%	0.4%	-23%	-0.6%&-0.2%	1.1%	1.9%
TRPML1 inh	-12	4	-13	26	3	38	-2	2&-4	-10	-1
gsp antag	.	-4%	-1%	0%	7%	8%	-18%	6%	4%	7%

Single records, from the list above. Order of values: gsp agonist	TRPML1 ag	Menin MLL FP FL	ClpP mod	TRPML1 inh	gsp antag
Cc1ccc(C)c(OCC(=O)NNC(=O)c2ccc(NC(=O)C3CC3)cc2)c1 is listed with 27%	-0.5	.	1.9%	-1	7%
CCN1CN(Cc2ccco2)CNC1=S is listed with -2%[15.4 µM]	-0.1	6.4	0.0%	3	7%
COc1ccccc1NC(=O)/C(C#N)=C/c1ccncc1 is listed with 5%	-0.1	.	1.1%	-10	4%
